Screening results deposited in PubChem by several laboratories.
ALR inh: human ALR oxidase inhibition via reduced H2O2; purified ALR, DTT oxidation, H2O2 HRP-luminol luminescence; inhibition, % (concentration not given with the values); 290,000 tested, 3.8% active; AID 485317;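 active = mean and each replicate at 75% or more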;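 note: stock transfer was 7.5 nL into about 7.5 µL; 0% = neutral wells and 100% = wells with inactivated enzyme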
Target sequence (P55789 whole entry, looked up): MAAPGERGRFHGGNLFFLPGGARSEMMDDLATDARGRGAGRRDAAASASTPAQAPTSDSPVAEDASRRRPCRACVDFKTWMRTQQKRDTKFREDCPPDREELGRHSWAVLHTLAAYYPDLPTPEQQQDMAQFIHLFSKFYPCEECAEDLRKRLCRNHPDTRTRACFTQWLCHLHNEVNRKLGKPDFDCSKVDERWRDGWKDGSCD
UCH37 DUB inh: inhibitors of human deubiquitinating enzyme UCH37; Q9Y5K5; purified proteasome/UCH37, Ub-AMC cleavage fluorescence; inhibition, % (no concentration beside the values); 330,000 tested, 0.33% active; AID 588478;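 active = mean of two replicates above 20%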;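 note: 0% = compound-free wells with enzyme and 100% = wells lacking proteasome; stock transfer was 100 nL into about 20 µL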
Target sequence (Q9Y5K5 whole entry, looked up): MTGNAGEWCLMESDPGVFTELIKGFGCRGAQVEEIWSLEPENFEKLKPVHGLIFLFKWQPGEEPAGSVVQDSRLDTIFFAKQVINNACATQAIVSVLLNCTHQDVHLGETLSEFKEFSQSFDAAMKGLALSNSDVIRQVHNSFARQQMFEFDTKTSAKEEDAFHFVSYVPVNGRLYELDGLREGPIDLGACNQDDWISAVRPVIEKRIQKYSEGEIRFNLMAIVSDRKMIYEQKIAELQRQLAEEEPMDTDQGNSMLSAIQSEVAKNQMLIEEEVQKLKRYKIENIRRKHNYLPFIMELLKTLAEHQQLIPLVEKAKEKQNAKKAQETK
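Reagent: Ub-AMC substrate; assay system: Proteasome-associated human UCH37 deubiquitinase; controls: no-proteasome and no-compound wells; read-out: % inhibition of Ub-AMC cleavage fluorescence; timing: 30 min preincubation with enzyme, 25 min cleavage at room temperature; signal: AMC fluorescence from Ub-AMC cleavage, excitation 355 nm, emission 460 nm; buffer or medium: Tris-HCl pH 7.4 plus ovalbumin, ATP-MgCl2, DTT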
FGF22 binding: binders of recombinant human FGF22 by thermal shift. calls only at 9.99 µM. Q9HCT0. AID 651658. 340,000 tested, 1.5% active. SYPRO orange fluorescence; percent of sucrose octasulfate shift, DMSO zero;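 active = melting point raised past a set limit in the mean and every replicate; three in four hits are not shown here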
Target sequence (Q9HCT0 whole entry, looked up): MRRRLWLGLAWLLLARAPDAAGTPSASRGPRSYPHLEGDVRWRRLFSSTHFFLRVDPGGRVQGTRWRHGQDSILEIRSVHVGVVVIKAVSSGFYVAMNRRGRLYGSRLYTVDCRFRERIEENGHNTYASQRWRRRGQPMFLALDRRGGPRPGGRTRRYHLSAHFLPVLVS
Ecoli growth: E. coli growth inhibition; Escherichia coli growth, OD600, 23 h; hits give low values; OD600 absorbance (no concentration beside the values); 330,000 tested, 0.21% active; AID 1053175;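 active = OD600 absorbance below the run mean of sample wells minus 3.6 SD, in any replicate, cut at about 0.56 in these data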;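 note: stock transfer was 300 nL into about 60 µL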
HNF4A DNA FP: change in binding of human HNF4 alpha to DNA; activity change, % at 10 µM; 360,000 tested, 0.3% active; HNF4a-FITC DNA binding, fluorescence polarization, 1 h; in the data active = activity change above about 30%, passing the limit was not always enough;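 note: controls were the assay level and a saturating level of protein; the project sought stronger binding though the title names inhibitors; some compounds called inactive have numbers as strong as hits; positive values seem to mean higher polarization but the record does not say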
B2AR ag: human beta-2 adrenergic receptor agonism by FAP | 340,000 tested, 0.43% active | P07550 | response, % (no concentration beside the values) | Am2.2-beta2AR cells, FAP receptor internalization, flow cytometry; reference of the scale not given here | AID 504454;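 active = response above a set limit, near 3 SD of response in nonfluorescent compounds, cut at about 42% in these data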;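 note: stock transfer was 100 nL into about 11 µL; a reference agonist was the positive control; negative values mostly stem from fluorescent compounds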
LANA-H2A inh: blocks KSHV LANA binding to histone H2A/H2B; inhibition, % (concentration not given with the values); cell-free LANA-H2A/H2B peptide, fluorescence polarization; 320,000 tested, 0.6% active; in the data active = inhibition mostly above about 10%, no sharp cut-off; inactive = mostly below about 6.7%;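 note: stock transfer was 7.5 nL into about 10 µL; 0% = median of vehicle wells and 100% = median of positive control wells; one replicate is shown; the record names a cut of 25% in any replicate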
An asterisk follows results filed as active; i = inactive; · = not tested or not shown.

SMILES	ALR inh	UCH37 DUB inh	FGF22 binding	Ecoli growth	HNF4A DNA FP	B2AR ag	LANA-H2A inh
Cc1cc(C(=O)C(=O)O)c(C)n1-c1ccc(Cl)c(Cl)c1	95*	2.7	·	0.66	5.6	-9	0.9
COC(=O)c1cc(NC(=O)c2ccc(Cn3cc(Cl)cn3)o2)cc(C(=O)OC)c1	-7	-1.0	·	0.7	1.3	28	6.8
CCOC(=O)N1CCN(C(=O)C2CCC(=O)N(CCCN3CCCC3=O)C2)CC1 (centres undefined)	-9	-0.4	i	0.7	-2.2	14	-3.2
Cc1nc(CN(C)C(=O)C2CCC(=O)N(CCc3cccc(F)c3)C2)cs1 (centres undefined)	0	-1.8	i	0.69	-3.3	0	2.6
COc1ccc(C(=O)/C=C/N(C)C)cc1OC	-7	17	·	0.69	2.0	-4	0.3
CC(=O)N1CC(C)c2scc(C)[n+]2-c2ccccc21 (centres undefined)	35	-0.4	·	0.7	0.6	3	2.4
Cc1ccc(S(=O)(=O)N2CCCN(c3nc4cc(C)ccc4cc3C#N)CC2)cc1	-3	-45	·	0.74	28	3	6.4
CCCCOCCCNC(=O)CCCOc1ccccc1	-5	3.0	·	0.71	0.9	-4	6.2
O=C(CN(C(=O)CCC(=O)Nc1nccs1)c1ccc2c(c1)OCO2)NCC1CCCO1 (centres undefined)	·	2.2	·	0.74	-3.1	-8	2.4
CCOc1ccc(NC(=O)CCc2nnc3ccc(N4CCC5(CC4)OCCO5)nn23)cc1	-7	1.3	i	0.66	-2.4	3	2.3
CC1CCCN(c2ccc(/C=C(\C#N)c3nn(-c4ccccc4)c(N)c3C#N)cc2[N+](=O)[O-])C1 (centres undefined)	1	5.1	·	0.72	-1.4	3	0.5
CS/C(=C\C(=O)c1ccco1)Nc1ccccc1Cl	0	5.3	i	0.68	0.9	-22	-5.5
COC(=O)C1=C(C)N(Cc2ccccc2)C(=NCc2cccc(Cl)c2)N[C@H]1c1cccc(F)c1	-9	1.7	·	·	6.6	48*	-2.5
COCCCNC(=O)C(F)(F)C(F)(F)C(=O)NCCCOC	1	1.7	·	0.67	2.0	-5	-0.7
Cc1ccc(OCC(=O)OCC(=O)Nc2sccc2C(N)=O)cc1C	9	4.5	·	0.72	-0.9	1	1.3
O=c1oc(-c2ccccc2NS(=O)(=O)c2ccccc2)nc2ccccc12	2	0.9	·	0.7	1.8	1	-14
COC(=O)C1=C(C)NC(C)=C(C(=O)OC)C1c1cc2ccc(C)cc2[nH]c1=O	-7	-17	·	0.73	-7.3	-10	0.9
Cc1ccc(-c2nnn(CC(=O)NC3CCCc4ccccc43)n2)cc1 (centres undefined)	·	2.6	·	0.7	-1.5	0	3.7
Cc1cc(NC(=O)CSc2nc(=O)cc(N)n2-c2ccc(F)cc2)no1	-1	2.6	i	0.71	-1.9	4	1.5
Cc1cc(C(=O)N/N=C2\CCCC(=O)C2)c2ccccc2n1	31	·	·	·	-1.2	-3	-3.3
COC(=O)c1nnn(CC(=O)Nc2ccc(C)c(F)c2)c1C(=O)OC	-6	2.0	·	0.69	0.5	13	-6.4
COc1cc(/C=C2\S/C(=N/S(=O)(=O)c3ccccc3)NC2=O)c([N+](=O)[O-])cc1OC	35	23*	·	0.67	-5.8	0	-0.8
Clc1ccc(C2Nc3cccc4cccc(c34)N2)cc1Cl	-28	5.3	i	0.68	13	18	-4.0
COCc1nnc(NC(=O)c2ccco2)s1	-6	7.2	·	0.66	-4.4	0	1.0
Cc1cc2cc(CNC(=O)C(C)Oc3ccccc3)ccc2n1C (centres undefined)	·	·	i	·	0.2	2	-0.7
The list goes on.
SMILES	ALR inh	UCH37 DUB inh	FGF22 binding	Ecoli growth	HNF4A DNA FP	B2AR ag	LANA-H2A inh
COCC(=O)Nc1cc(=O)n(C)c(=O)n1C	-20	3.1	i	0.71	3.1	5	-0.9
Oc1ccc2ccccc2c1CN1CCN(c2ccccc2F)CC1	·	-2.3	i	0.71	-0.1	12	·
CC1CCCN(C(=O)COC(=O)c2ccc[nH]c2=O)C1 (centres undefined)	·	0.5	·	0.77	-2.2	51*	0.1
COC(=O)Cn1cnc2c(nnn2Cc2ccc(Cl)cc2)c1=O	-7	-1.6	·	0.67	-2.3	11	-6.2
COc1cc(OC)cc(C(=O)Nc2cccc(-c3ccc4nncn4n3)c2)c1	1	-6.3	·	0.7	·	·	-1.4
O=C(CCCOc1ccc(Cl)cc1Cl)Nc1ccc(O)cc1C(=O)O	66	-7.6	i	0.68	0.3	-6	2.6
CCOC(=O)c1cnc(SC)nc1Oc1cccc(NC(=O)c2ccc(Cl)cc2)c1	8	2.0	·	0.73	-0.4	-12	1.1
CC(=O)OC(C(=O)N1CCN(c2ccccc2F)CC1)c1ccccc1 (centres undefined)	-3	-1.2	·	0.72	-0.8	-3	-1.9
O=C(c1ccc(N2CCN(C3CC(=O)N(Cc4cccs4)C3=O)CC2)cc1)c1cccnc1 (centres undefined)	-2	7.4	i	0.71	-1.6	-10	-2.5
O=C1NC2(CCCc3ccccc32)C(=O)N1Cc1nnc(-c2ccccc2Br)o1 (centres undefined)	·	4.3	·	0.7	-0.4	1	-3.9
COc1ccc(N2CC(C(=O)N[C@@H](C)C(=O)N[C@H](CO)c3ccccc3)CC2=O)cc1 (some centres undefined)	·	2.5	i	0.69	2.7	3	7.0
Cc1ccc(N2C(=O)CC(N3CCN(S(=O)(=O)c4ccccc4)CC3)C2=O)c(C)c1 (centres undefined)	-15	3.1	i	0.72	-3.6	-3	1.4
CC(Cc1cccs1)NC(=O)Nc1ccccc1 (centres undefined)	1	4.6	·	0.7	-0.1	-3	3.6
CC(=O)Nc1ccc(NC(=O)CSC2=NCCS2)cc1	·	-2.6	·	0.76	-1.3	6	·
O=C(Nc1cccc(F)c1)C1CCCN(S(=O)(=O)c2cccc3cccnc23)C1 (centres undefined)	-1	3.8	i	0.68	-1.2	-5	-1.7
Cc1ccc(-n2c(C)cc(C(=O)CN3CCCCC3)c2C)cc1	12	1.9	i	0.67	-0.1	-4	-2.4
C[C@@H]1CN([C@H](C)CO)C(=O)c2cc(NC(=O)Nc3ccc(C(F)(F)F)cc3)ccc2O[C@H]1CN(C)Cc1ccc(Cl)c(Cl)c1	·	3.8	i	0.75	-5.0	-1	·
O=C(Nc1ccc(F)c([N+](=O)[O-])c1)c1cccs1	12	3.9	i	0.71	0.9	-13	0.6
Cc1c(OCC(=O)NCc2cccnc2)ccc2c3c(c(=O)oc12)CCCC3	6	-25	i	0.71	-3.3	-6	2.6
Cc1ccc2c(c1)nnn2C1CCN(CC(=O)N2CCN(c3ccc(F)cc3)CC2)CC1	24	5.3	·	0.65	1.3	-10	6.5
CCCc1ccc(-c2csc(NC(=O)Cc3cccs3)n2)cc1	-13	3.8	·	0.73	0.2	11	1.0
O=C(c1cc(-c2ccc(O)cc2)on1)N1CCN(c2ccc(F)cc2)CC1	91*	3.0	i	0.72	1.5	7	6.9
COc1ccc(Sc2nc(-c3ccccc3)ncc2OC)cc1	-4	0.4	i	0.71	3.7	-1	1.2
CSc1ncc(Cl)c(C(=O)Nc2ccc(C)c(C)c2)n1	-10	2.5	i	0.68	-0.4	-10	2.7
Cc1cc(C)c([N+](=O)[O-])cc1-c1ccc(/C=N/NC(=O)c2nonc2N)o1	8	·	·	·	8.1	3	3.5

Compounds shown so far containing a COOH group (2):
SMILES	ALR inh	UCH37 DUB inh	FGF22 binding	Ecoli growth	HNF4A DNA FP	B2AR ag	LANA-H2A inh
Cc1cc(C(=O)C(=O)O)c(C)n1-c1ccc(Cl)c(Cl)c1	95*	2.7	·	0.66	5.6	-9	0.9
O=C(CCCOc1ccc(Cl)cc1Cl)Nc1ccc(O)cc1C(=O)O	66	-7.6	i	0.68	0.3	-6	2.6

(list continues)
SMILES	ALR inh	UCH37 DUB inh	FGF22 binding	Ecoli growth	HNF4A DNA FP	B2AR ag	LANA-H2A inh
CC(=O)c1ccc(OCCCC(=O)Nc2cccc(S(=O)(=O)N3CCCCCC3)c2)cc1	·	3.5	i	0.72	0.5	-7	1.4
COCCNc1oc(-c2ccc(Cl)cc2)nc1C#N	·	-287	·	0.69	-2.6	-4	·
N#C/C(C(=O)Oc1ccccc1)=C1\C=Cc2ccccc2N1	-2	-58	·	0.72	-3.6	-11	4.5
COc1ccc(Cn2c(C)nc3oc4cc(OC)ccc4c(=O)c3c2=O)cc1	·	0.9	·	0.71	2.1	2	·
O=C(CNC(=O)c1ccc(Cl)cc1)OCc1nc2ccccc2s1	-8	4.4	i	0.68	-5.6	9	-1.2
CC/C(=N\NC(=S)NC(C)C)c1ccc(OC(F)F)cc1	1	·	i	·	1.0	5	-1.6
Cc1cc(C(=O)Nc2nc3c(s2)CCCC3)cs1	-2	0.4	·	0.65	-3.4	5	0.8
CC(=O)N1CCN(S(=O)(=O)c2cccc(C(=O)Nc3ccccc3N3CCCCC3)c2)CC1	·	-48	i	0.65	0.2	-8	·
Cc1cc(C)cc(Oc2c(C(F)(F)F)oc3cc(OCC(=O)O)ccc3c2=O)c1	-2	3.0	i	0.63	-5.0	4	-4.1
CCn1c(=O)c2c(nc3n2CCCN3CCc2ccccc2)n(C)c1=O	·	4.1	·	0.73	-2.8	-4	-1.3
N#Cc1ccc(NC(=O)Cn2cnc([N+](=O)[O-])c2)cc1	-2	1.1	·	0.68	1.5	-1	-2.0
CC(C)CCNC(=O)C(c1cccnc1)N(Cc1ccccc1)C(=O)Cn1nnc2ccccc21 (centres undefined)	-6	0.6	·	0.74	-0.1	-11	3.7
CCOc1ccc(N=C2NC(=O)/C(=C/C(=O)OC)S2)cc1	1	4.0	·	0.64	-1.5	14	-0.7
COc1ccc(C(=O)Nc2c(F)c(F)c(F)c(F)c2F)c(OC)c1	-2	-0.5	·	0.75	4.4	10	4.1
CCOc1ccc(CC(=O)Nc2sc(Cc3ccccc3)cc2C(N)=O)cc1OCC	-13	-0.1	i	0.75	-2.0	5	-0.9
O=C(CCc1nc2ccccc2c(=O)[nH]1)N1CCN(S(=O)(=O)c2cc(Cl)ccc2Cl)CC1	·	·	i	·	2.9	-6	·
Cc1ccc(NC(=O)Cn2ncn3c(cc4ccccc43)c2=O)c(C)c1	-14	-5.0	i	0.68	4.8	2	-2.0
COCCn1c(SCC(=O)Nc2ccc(Cl)cn2)nnc1-c1ccncc1	·	0.5	i	0.71	3.4	-3	0.9
COCC(=O)NC1CCN(CC(=O)Nc2ccc(OC)cc2[N+](=O)[O-])CC1	-1	0.8	·	0.7	-2.1	-5	3.4
CCOc1ccc(OCCC(=O)N(CC(C)C)c2c(N)n(Cc3ccccc3)c(=O)[nH]c2=O)cc1	·	-3.5	i	0.63	-6.3	-5	·
Cc1ccc(-c2nc(CS(=O)(=O)CC(=O)NCCN3CCCC3)c(C)o2)cc1	-2	0.0	i	0.63	1.0	0	3.6
CN(C)CCCNC(=O)c1ccccn1	1	2.4	·	0.7	-3.2	8	-0.7
Nc1[nH]c(=O)[nH]c(=O)c1N=Nc1ccc(C(=O)O)cc1	-12	-0.4	i	0.66	-0.9	2	0.2
Cc1cc(C)cc(C(=O)NCCCN2CCOCC2)c1	-23	5.1	i	0.65	0.2	-4	5.7
O=C(N/N=C/c1ccc(Sc2nc3ccccc3s2)c([N+](=O)[O-])c1)c1ccccn1	-2	·	·	·	-4.0	22	-1.7
O=[N+]([O-])c1ccccc1/C=C/CN1CCCCC1CO (centres undefined)	-5	2.8	i	0.7	2.6	5	1.5
COC(=O)CCCC(=O)N1CCC(CCC(=O)NC2CC2)CC1	-62	4.3	i	0.67	1.1	-4	0.8
C=CCn1c(C)cc(C(=O)COC(=O)CNC(=O)c2ccccc2)c1C	41	4.3	i	0.71	1.5	3	6.2
CC(C)(SC(=S)N1CCOCC1)C(=O)O	-11	-0.7	·	0.71	-2.4	5	-3.8

A portion of the library; rates above refer to the full screens.
